Mtb MbtI inh: blocks the Mycobacterium tuberculosis siderophore enzyme MbtI; P9WFX0; purified MbtI enzyme, fluorescence intensity read-out; inhibition, %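 (about 17 µg/mL by stock and volumes)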; 100,000 tested, 0.89% active; AID 493033;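 active = above 50% in both replicates, above 80% if mildly self-fluorescent; inactive = the rest, strongly fluorescent compounds included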;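 also: 0% = mean of negative and 100% = mean of positive controls; one replicate is shown; some compounds called inactive have numbers as strong as hits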
Target sequence (P9WFX0 whole entry, looked up): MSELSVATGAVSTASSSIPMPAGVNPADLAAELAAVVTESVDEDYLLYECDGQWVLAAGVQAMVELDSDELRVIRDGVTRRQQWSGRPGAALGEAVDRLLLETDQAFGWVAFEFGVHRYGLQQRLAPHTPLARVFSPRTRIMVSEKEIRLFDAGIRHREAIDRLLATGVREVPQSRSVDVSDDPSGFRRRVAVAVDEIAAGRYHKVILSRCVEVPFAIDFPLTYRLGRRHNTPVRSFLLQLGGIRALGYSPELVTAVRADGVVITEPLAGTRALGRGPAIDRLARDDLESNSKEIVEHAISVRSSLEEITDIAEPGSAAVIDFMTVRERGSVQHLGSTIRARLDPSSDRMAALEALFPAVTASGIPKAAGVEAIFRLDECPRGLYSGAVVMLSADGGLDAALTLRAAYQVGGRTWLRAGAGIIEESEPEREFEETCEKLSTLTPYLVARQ
Polio RdRp inh: poliovirus RNA polymerase inhibition. 150,000 tested, 0.66% active. poliovirus polymerase elongation, fluorescence polarization; hits give low values. AID 588519. % elongation, % (compound at 16.7 µg/mL); in the data active = % elongation below about 90%; also: some results filed as inactive read as strong as hits
Target sequence (P03300 1749-2209 limits assumed): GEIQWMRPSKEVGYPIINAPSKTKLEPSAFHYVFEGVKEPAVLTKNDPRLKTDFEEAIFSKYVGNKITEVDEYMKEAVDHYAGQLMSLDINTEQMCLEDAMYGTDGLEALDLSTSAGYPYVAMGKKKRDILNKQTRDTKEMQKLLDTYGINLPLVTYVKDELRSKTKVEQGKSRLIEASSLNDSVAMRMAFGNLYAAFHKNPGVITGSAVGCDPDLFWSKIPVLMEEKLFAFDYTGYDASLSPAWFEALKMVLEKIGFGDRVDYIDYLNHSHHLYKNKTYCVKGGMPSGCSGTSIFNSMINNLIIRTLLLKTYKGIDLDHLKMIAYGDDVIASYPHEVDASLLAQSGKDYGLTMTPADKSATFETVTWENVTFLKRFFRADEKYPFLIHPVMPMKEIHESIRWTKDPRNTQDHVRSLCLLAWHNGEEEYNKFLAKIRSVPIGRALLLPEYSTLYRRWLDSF
Mtb MenB inh: Mtb MenB enzyme inhibition; P9WNP5; MenB enzyme assay, absorbance read-out; some hits fall short of the stated cut; inhibition, %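 (about 12 µg/mL by stock and volumes)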; 100,000 tested, 0.43% active; AID 540299;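 active = mean of two replicates above 30%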;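 also: 0% = no compound and 100% = wells with inactive enzyme; the first replicate is given; strong numbers were not always called active; inactives centre near -10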
Polio RdRp inh intensity: further read-out of Polio RdRp inh, marked with its call; % elongation; measured here: total intensity read-out; formula for this scale not given here;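 total fluorescence in place of polarization; lower means less elongation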
The depositor's hits bear a star; i = inactive; . = not tested or not shown; & = joins results of further samples.

SMILES	Mtb MbtI inh	Polio RdRp inh	Polio RdRp inh intensity	Mtb MenB inh
O=C(COC(=O)c1cc(Br)ccc1O)NCc1ccccc1	-24	100	96	.
Cc1cc(C)n2c(nc(=O)c3ccccc32)c1C#N	4	99	132	-12
CC(C)Nc1nc(NC(C)C)nc(Oc2ccc(=O)[nH]n2)n1	-3	103	102	-17
Cc1ccc(Cn2nccc2NC(=O)c2cccnc2Sc2ccccc2)o1	5	99	98	7
COc1ccc(O)c(/C=N/NC(=O)c2ccn(Cc3ccc(Cl)cc3)n2)c1	-148	101	101	-45
COc1ccc(-c2nc(CS(=O)CC(=O)NC(C)c3ccccc3)c(C)o2)cc1OC (stereo not given)	27	101	105	1
CC(=O)NC1CC2CCCC(C1)N2S(=O)(=O)c1ccccc1 (stereo not given)	-20	102	102	-26
CC(N=Cc1nc2ccccc2n1C)C12CC3CC(CC(C3)C1)C2 (stereo not given)	3	101	100	2
O=C(/C=C/c1ccccc1)Nc1cccnc1	23	99	99	-4
COc1ccccc1N(CC(=O)NCC1CCCO1)S(=O)(=O)c1ccc(C)cc1 (stereo not given)	-6	100	96	-29
O=C1CCCc2nc3nc4ccccc4n3cc21	8	101	102	14
COc1ccc(NC(=O)N2CC(C)OC(C)C2)c(OC)c1 (stereo not given)	-8	103	104	-3
CC(C)c1cc(C(=O)O)on1	1	105	101	31*
COc1ccc(C2=CSC3=NS(=O)(=O)CCN23)cc1Cl	-6	107	106	-14
O=S(=O)(CCSc1nccc(-c2cccs2)n1)c1ccc(F)cc1	-5	101	108	-2
CC(C)=NNC(=O)C(NC1CCCCC1)c1ccccc1 (stereo not given)	-1	99	94	8
COc1cc(Nc2cnn(-c3nc4ccccc4s3)c(=O)c2Cl)cc(OC)c1	-4	104	108	-13
CN(C(=O)C1CCC(CNS(=O)(=O)c2cccc3cccnc23)CC1)C1CCCCC1 (stereo not given)	-5	98	104	-6
CN(Cn1nc(Nc2ccccc2F)sc1=S)C1CCCCC1	99	98	103	4
O=C(CCc1c[nH]c2ccccc12)N(Cc1ccco1)Cc1cccs1	-1	.	.	-11
O=C(O)CC(Sc1nc2sc3c(c2c(=O)[nH]1)CCCC3)C(=O)O (stereo not given)	6	102	104	0
CN(C)/C=N/N=C/c1cc(Cl)cc(Cl)c1O	-4	102	103	-2
COc1ccccc1N1C(=O)CC(SCC(=O)Nc2ccccc2)C1=O (stereo not given)	22	102	103	-18
COc1ccc(C2NC(=O)CS2)cc1 (stereo not given)	-6	103	105	12
COc1ccccc1CNS(=O)(=O)c1cccs1	0	102	107	-17
(list continues)
SMILES	Mtb MbtI inh	Polio RdRp inh	Polio RdRp inh intensity	Mtb MenB inh
CC(C)Nc1ncnc2scc(-c3ccccc3)c12	-6	109	112	-4
Cc1ccsc1CCNS(=O)(=O)c1ccc2[nH]c(=O)ccc2c1	22	101	99	-32
CCOC(=O)N1CCC(Nc2nn3nnnc3c3ccccc23)CC1	1	100	97	13
c1ccn2cc(C34CC5CC(CC(C5)C3)C4)nc2c1	-1	100	106	15
CCn1c(COc2cccc(C)c2)nnc1SCC(=O)NC(C)(C)C	12	103	102	41*
Nc1nnnn1/N=C\C=C\c1ccccc1	-2	101	104	-36
Cc1ccc(-n2cnc3cc(NCc4ccncc4)ccc32)cc1	0	101	102	-13
CC(C)=C1C(=O)Nc2ccc(S(=O)(=O)N(C)C3CCCCC3)cc21	-14	100	103	9
CSc1nc2ccccc2n1CC(=O)c1cc(C)n(C)c1C	4	104	101	-26
Cc1nc(=S)[nH]c(C)c1CCC(=O)O	3	102	106	-83
OCC(O)Cn1c(COc2ccccc2)nc2ccccc21 (stereo not given)	-7	103	103	-15
FC(F)(F)c1ccc2cc(CSc3ccc(Cl)cc3)ccc2n1	6	105	100	8
CCCc1cc(N2CCCCC2)n2c(nc3ccccc32)c1C#N	-4	103	103	-7
CCOC(=O)c1sc(NC(=O)C2C3C=CC(C3)C2C(=O)O)nc1C (stereo not given)	-10	100	103	-9
NC(=O)c1ccc(Nc2nc(=S)[nH]c3ccccc23)cc1	6	103	98	-17
O=C(N1CCCCCC1)N1CCN(C(=O)N2CCCCCC2)CC1	-7	100	101	4
O=C(CSCc1ccc(Cl)cc1)c1cc2ccccc2o1	-11	101	104	.
N#Cc1c(-c2ccco2)c2c([nH]c1=S)CCCC2=O	35	102	103	-112
CCN1C2=C(C(=O)CC(C)(C)C2)C(c2ccc(OC)cc2)C2=C1CC(C)(C)CC2=O	-11	103	109	-66
C=CCn1c(-c2ccc(Cl)cc2)cnc1SCc1c(C)noc1C	-49	99	100	-3
O=C(CSc1nnc(C2CCCCC2)o1)NN1C(=O)NC2(CCCCC2)C1=O	-18	103	109	-9
COc1cccc(NC(=O)CC(C)NCc2nc3ccccc3[nH]2)c1 (stereo not given)	-4	103	98	-36
CCN(C(=O)c1ccco1)c1nc(-c2ccccc2)cs1	-1	102	101	0
O=C1CC(c2cccnc2)Nc2ccc3ccccc3c21 (stereo not given)	5	99	99	-4
Cc1ccc(S(=O)(=O)NCCc2nnc(SCc3ccccc3)n2C)cc1	-3	101	99	-38

Ordered by length of the SMILES (smallest number first): part of the list above
SMILES	Mtb MbtI inh	Polio RdRp inh	Polio RdRp inh intensity	Mtb MenB inh
Nc1nnnn1/N=C\C=C\c1ccccc1	-2	101	104	-36
Cc1nc(=S)[nH]c(C)c1CCC(=O)O	3	102	106	-83
CC(C)Nc1ncnc2scc(-c3ccccc3)c12	-6	109	112	-4
OCC(O)Cn1c(COc2ccccc2)nc2ccccc21 (stereo not given)	-7	103	103	-15
O=C(CSCc1ccc(Cl)cc1)c1cc2ccccc2o1	-11	101	104	.
CCN(C(=O)c1ccco1)c1nc(-c2ccccc2)cs1	-1	102	101	0
N#Cc1c(-c2ccco2)c2c([nH]c1=S)CCCC2=O	35	102	103	-112
CCCc1cc(N2CCCCC2)n2c(nc3ccccc32)c1C#N	-4	103	103	-7
NC(=O)c1ccc(Nc2nc(=S)[nH]c3ccccc23)cc1	6	103	98	-17
C=CCn1c(-c2ccc(Cl)cc2)cnc1SCc1c(C)noc1C	-49	99	100	-3
CCn1c(COc2cccc(C)c2)nnc1SCC(=O)NC(C)(C)C	12	103	102	41*
COc1cccc(NC(=O)CC(C)NCc2nc3ccccc3[nH]2)c1 (stereo not given)	-4	103	98	-36
CC(C)=C1C(=O)Nc2ccc(S(=O)(=O)N(C)C3CCCCC3)cc21	-14	100	103	9
CCN1C2=C(C(=O)CC(C)(C)C2)C(c2ccc(OC)cc2)C2=C1CC(C)(C)CC2=O	-11	103	109	-66

Other structures.
SMILES	Mtb MbtI inh	Polio RdRp inh	Polio RdRp inh intensity	Mtb MenB inh
COCc1cn2ccccc2n1	100	101	106	.
O=c1[nH]c2ccccc2c(=O)n1CCc1nc(-c2ccccc2)no1	-3	102	103	-12
CS(=O)(=O)N1CCN(C(=O)CCC(=O)O)CC1	-8	101	102	1
CN1CC=C2C(C(=O)O)=C(N)C(C#N)(C#N)[C@@H](c3ccncc3)[C@@H]2C1	.	90	126	-19
CCN(CC)c1ccc2cc(C(N)=O)c(=Nc3ccccc3)oc2c1	-5	108	114	.
CC(C)C1Cc2[nH]c(=O)c(C(=O)O)cc2CO1 (stereo not given)	111	98	100	-15
CC(C)=CCc1c(O)cc(O)c2c1O[C@H](c1ccccc1)CC2=O	.	107	107	-38
COC(=O)c1nnn(-c2nonc2N)c1C(=O)OC	15	100	102	10
O=C(CSc1nnc(-c2ccco2)n1C1CCCCC1)c1ccc2[nH]c(=O)oc2c1	-2	126	135	-4
N#CC1=C(N)N2C(=C(C#N)C13CCN(Cc1ccccc1)CC3)Nc1ccccc12	.	100	93	-12
CCN(CC(=O)NC1CCS(=O)(=O)C1)C(=O)C(c1ccccc1)c1ccccc1 (stereo not given)	-10	106	99	4
O=C(CSC1=NCCS1)c1cc(Cl)ccc1Cl	24	102	97	.
N=C1/C(=C\c2ccc(-c3ccc(Br)cc3)o2)C(=O)N=C2SC(N3CCOCC3)=NN12	-3	99	103	-20
CC(=O)Nc1nc2nc(C)cc(=O)n2[nH]1	-15	102	102	-3
NNC(=O)c1ccc2c(=O)n3c(nc2c1)CCC3	7	103	102	6
COC(=O)c1cc(S(=O)(=O)N(C)C2CCCCC2)cn1C	-4	105	107	8
COc1cccc2cc(C(=O)N3CCN=C3c3ccccc3)c(=O)oc12	7	101	106	6
c1cc(N2CCOCC2)ccc1Nc1nc2nonc2nc1Nc1ccc(N2CCOCC2)cc1	-5	103	102	-14
O=C(Cc1nc2ccccc2[nH]1)c1ccc(F)cc1F	-11	104	109	.
C[C@H](NS(=O)(=O)c1ccccc1)C(=O)Nc1nccs1	21	106	101	-27
Cc1c(C(=O)NCc2ccc3c(c2)OCO3)oc2ccc3c(c12)C(O)CC1(CCCCC1)O3 (stereo not given)	i	102	103	-8
O=C(O)CC(SC(=NC1C=CCCC1)N1CCCCC1)C(=O)O (stereo not given)	.	103	104	-10
CCOC(=O)c1cc(S(=O)(=O)N2CC3CC(C2)c2cccc(=O)n2C3)cn1C (stereo not given)	-9	102	104	8
O=c1nc(N2CCCC2)nc(N2CCCC2)[nH]1	-6	104	103	-32
O=C(O)c1cc(O)c2c(c1)[C@@H]([C@H]1c3cc(C(=O)O)cc(O)c3C(=O)c3c(O[C@H]4O[C@H](CO)[C@@H](O)[C@H](O)[C@H]4O)cccc31)c1cccc(O[C@H]3O[C@H](CO)[C@@H](O)[C@H](O)[C@H]3O)c1C2=O	-52	98	101	1
Next section:
SMILES	Mtb MbtI inh	Polio RdRp inh	Polio RdRp inh intensity	Mtb MenB inh
Cc1ccc(S(=O)(=O)CCC(=O)OCN2C(=O)c3ccccc3C2=O)cc1	0	103	103	-14
Nc1c2c(nc3sc4c(c13)CCCC4)CCCC2	-1	103	100	-35
COC(=O)NCC12CC3CC(CC(C3)C1)C2	3	101	104	7
CCCCNC(=O)c1ccc2c(c1)NC(=O)C(CC(C)C)N2 (stereo not given)	24	101	99	-29
O=C(/C=C/c1ccc(Cl)cc1)NCc1ccccn1	0	100	102	4
N#CCn1c(COC(=O)CCc2ccc(S(=O)(=O)N3CCOCC3)cc2)nc2ccccc2c1=O	49	101	102	-25
C/C(N)=C(/C#N)C(=O)CSc1nnc(SCC(=O)/C(C#N)=C(\C)N)s1	3	96	102	-36
CN(C)c1cc(-c2ccc(Cl)cc2)oc(=O)c1Cl	-2	104	110	-18
COc1ccccc1NC(=O)c1ccc(NC(=O)COC(=O)C2CCCO2)cc1 (stereo not given)	10	106	103	14
CN(C)c1ccc(/C=N/c2nc3ccccc3n2Cc2ccc(Cl)cc2)cc1	-1	110	109	-47
CCN(CC)CCCOc1c(C)cc(Cl)cc1Cl	-14	102	104	-3
NC1=CC(=O)c2ccccc2C1=O	66	88*	82*	-66
O=C(CC1OC(=O)c2ccccc21)OCC(=O)c1ccc(F)cc1 (stereo not given)	-7	106	103	-20
Cc1ccc(CN2CCC(CNC(=O)Nc3ccccc3F)C2)cc1 (stereo not given)	-9	103	104	-18
O=C(O)/C=C\C(=O)Nc1ccc2c(c1)OCCO2	19	100	99	-3
OC(CCN1CCCC1)(c1ccccc1)C1CCCCC1 (stereo not given)	-11&-19	99&101	100&101	-3&0
CN(C)S(=O)(=O)Nc1ccc2c(c1)oc1ccccc12	i	103	99	-44
CNC(C)c1ccccc1 (stereo not given)	-13	105	111	2
O=C(O)CCCNCc1ccc(Cl)cc1	-19	101	102	-11
CC(C)C(=O)Nc1nc2nc(-c3ccccc3)cc(=O)n2[nH]1	18	100	102	20
CC(/C=N/NC(=O)Cc1cccn1C)=C\c1ccco1	14	106	101	-40
COc1cc2c(cc1NC(=O)C(C)N1CCC(C)CC1)oc1ccccc12 (stereo not given)	6	100	103	-7
Cc1ccc(-c2cc(C(=O)N3CCCCC3)c3ccccc3n2)cc1C	104	100	107	0
Cc1ccc(Oc2ccsc2C=C(C#N)C#N)cc1	3	100	105	-11
COC(=O)c1ccc(/C=C/C(=O)OCC#N)cc1	1	88*	86*	3
Other entries follow:
SMILES	Mtb MbtI inh	Polio RdRp inh	Polio RdRp inh intensity	Mtb MenB inh
COc1ccc(S(=O)(=O)NCC(c2cccnc2)N2CCN(c3ccc(F)cc3)CC2)cc1C (stereo not given)	-4	101	105	-34
COC(=O)c1sc2nc(SCC(=O)N3CCCc4ccccc43)n(N)c(=O)c2c1C	19	99	103	1
Fc1cccc(CSCc2c(F)cccc2Cl)c1	-5	101	104	-76
c1ccc2c(NCNc3noc4ccccc34)noc2c1	0	104	100	-11
COc1ccc(CN(C)CC(=O)NC2CCCCC2)cc1	-24	97	103	6
CCCNC(=O)Cn1nc(C)n2c(cc3cc(C)ccc32)c1=O	-11	103	106	4
C=CCN1C(=O)/C(=C/c2c(N3CCNC(=O)C3CC(=O)OCC)nc3ccccn3c2=O)SC1=S (stereo not given)	-15	47	244	-39
CN(C)CCNC(=O)c1cc(N2CCc3ccccc3C2)nc2ccccc12	0	103	105	.
OC(CNCCc1ccccc1)Cn1nnnc1-c1ccccc1 (stereo not given)	-1	104	103	-16
FC(F)(F)c1ccc(-c2noc(-c3ccco3)n2)cc1	-10	101	102	3
Cc1cccc(C)c1NC(=O)Cn1nnnc1N	-5	103	108	-8
Cn1nnnc1SCC(=O)Nc1ccc(C(=O)Nc2ccc3c(c2)OC2(CCCC2)O3)cc1	32	103	103	-10
COc1ccc(OCCSc2ncnc3nc[nH]c23)cc1	1	101	95	-24
Cc1ccc(-n2nc3c(N4CCCC(C(=O)N5CCc6ccccc65)C4)nnc(C)c3c2C)cc1 (stereo not given)	-14	105	107	7
CSc1nnc(-c2cccnc2)n1-c1ccccc1F	-7	108	110	-18

Source: PubChem BioAssay
